PV pol inh = poliovirus RdRp elongation inhibitors, primary screen, biochemical, fluorescence polarization, total intensity; Genome polyprotein (Poliovirus type 1 (strain Mahoney)), P03300; poliovirus polymerase elongation; stronger effect = lower value; % elongation, % (compound at 16.7 µg/mL); 150,000 tested, 0.66% active; AID 588519, 2011; in the data active = % elongation below about 90%; note: some results filed as inactive read as strong as hits
Target sequence (P03300 1749-2209 limits assumed): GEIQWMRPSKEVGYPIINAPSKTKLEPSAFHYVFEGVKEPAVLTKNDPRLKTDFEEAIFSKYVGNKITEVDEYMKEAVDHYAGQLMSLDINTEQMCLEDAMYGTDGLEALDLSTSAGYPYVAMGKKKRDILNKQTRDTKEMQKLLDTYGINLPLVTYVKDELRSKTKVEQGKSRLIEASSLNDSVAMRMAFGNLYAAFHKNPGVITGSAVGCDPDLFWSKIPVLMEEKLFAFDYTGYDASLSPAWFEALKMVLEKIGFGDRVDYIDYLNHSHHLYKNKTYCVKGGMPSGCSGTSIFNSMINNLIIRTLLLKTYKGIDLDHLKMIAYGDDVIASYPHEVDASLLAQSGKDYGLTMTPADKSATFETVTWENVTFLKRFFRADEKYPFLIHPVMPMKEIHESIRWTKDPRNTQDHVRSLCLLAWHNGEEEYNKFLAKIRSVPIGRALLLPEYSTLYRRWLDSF
Mtb MbtI inh = MbtI salicylate synthase inhibitors, primary screen, biochemical, fluorescence intensity | purified MbtI enzyme, fluorescence intensity read-out | inhibition, %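 (about 17 µg/mL by stock and volumes)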 | 100,000 tested, 0.89% active | AID 493033, 2011;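 active = above 50% in both replicates, above 80% if mildly self-fluorescent; inactive = the rest, strongly fluorescent compounds included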;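 note: 0% = mean of negative and 100% = mean of positive controls; one replicate is shown; some compounds called inactive have numbers as strong as hits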
Target sequence (P9WFX0 whole entry, looked up): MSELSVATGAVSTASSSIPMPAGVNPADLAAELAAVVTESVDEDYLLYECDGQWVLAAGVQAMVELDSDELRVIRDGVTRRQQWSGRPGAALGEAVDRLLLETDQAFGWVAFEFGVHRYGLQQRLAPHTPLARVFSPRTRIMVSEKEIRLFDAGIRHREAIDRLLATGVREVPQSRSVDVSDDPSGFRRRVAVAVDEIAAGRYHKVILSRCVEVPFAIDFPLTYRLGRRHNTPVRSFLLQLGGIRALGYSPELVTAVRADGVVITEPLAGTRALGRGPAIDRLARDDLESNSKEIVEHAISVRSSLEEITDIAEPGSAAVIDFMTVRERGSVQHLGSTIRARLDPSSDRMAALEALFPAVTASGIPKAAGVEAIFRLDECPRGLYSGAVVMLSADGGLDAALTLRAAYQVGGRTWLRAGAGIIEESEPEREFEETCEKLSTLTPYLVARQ
Mtb MenB inh = M. tuberculosis MenB inhibitors, primary screen, biochemical, absorbance; 1,4-dihydroxy-2-naphthoyl-CoA synthase (Mycobacterium tuberculosis (strain ATCC 25618 / …; MenB enzyme assay, absorbance read-out; some hits fall short of the stated cut; inhibition, %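 (about 12 µg/mL by stock and volumes)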; 100,000 tested, 0.43% active; AID 540299, 2011;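 active = mean of two replicates above 30%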;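 note: 0% = no compound and 100% = wells with inactive enzyme; the first replicate is given; strong numbers were not always called active; inactives centre near -10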
PV pol inh intensity = second read-out of PV pol inh, no call of its own (marks repeat the call); % elongation; measured here: total intensity read-out; formula for this scale not given here;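 total fluorescence in place of polarization; lower means less elongation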
* marks the source's active call; other numbers are inactive results; i = inactive; · = no result given; & = joins results of further samples.

SMILES	PV pol inh	PV pol inh intensity	Mtb MbtI inh	Mtb MenB inh
CC(CS(=O)(=O)c1ccc2c(c1)NC(=O)C(C)S2)C(=O)N1CCc2ccccc21 (configuration not stated)	103	103	-12	-23
O=C1c2[nH]nc(-c3ccccc3O)c2C(c2ccccc2)N1Cc1ccco1 (configuration not stated)	104	104	9	-15
CN1CC2(C)CN(C(=O)c3ccccc3Cl)CC(C)(C1)C2	99	103	-9	33
O=C(C1CCCN(S(=O)(=O)c2ccccc2)C1)N1CCCc2ccccc21 (configuration not stated)	99	102	-1	42
CC1CCCC(NC(=O)c2ccc(C#N)cc2)C1C (configuration not stated)	103	109	-8	·
S=C(NC(Cc1ccccc1)c1ccccc1)NC1CC2C=CC1C2 (configuration not stated)	108	109	-10	-37
Cc1nnc(NC(=O)C2CCN(S(=O)(=O)c3ccc4c(c3)CCC4)CC2)o1	102	94	-4	-26
CC(C)(C)C(=O)NCCSc1nnnn1-c1ccccc1	103	102	0	-17
Cc1sc2ncn(CC(=O)NCc3ccccn3)c(=O)c2c1S(=O)(=O)N1CCN(c2ncccn2)CC1	103	103	-2	-16
CC(C)NC(=O)NC(=O)CN1c2cccc3cccc(c23)S1(=O)=O	95	100	-6	0
N#CCNC(=O)COc1ccc(Cl)cc1	99	103	-3	-6
O=C(Nc1ccc2c(c1)OCC(=O)N2Cc1ccccc1F)NC1CCCCC1	100	102	-1	-8
COC(=O)c1ccsc1NC(=O)c1ccsc1NC(=O)c1cccnc1	100	104	-23	-16
CC1CC(C)CN(C(=O)CN2C(=O)c3ccccc3S2(=O)=O)C1 (configuration not stated)	98	95	-7	·
O=C(CCc1nnc2ccc(N3CCC4(CC3)OCCO4)nn12)Nc1ccc2c(c1)OCO2	101	98	-11	-41
COc1cc2nc(C3CCC3)n(NC(=O)c3ccco3)c(=O)c2cc1OC	99	103	3	14
CCOc1ccc2sc(C=NC(C)CC)c(O)c2c1 (configuration not stated)	107	103	·	-270
CCc1nc2cc(Cl)c(Cl)cc2[nH]1	99	104	-3	3
Cc1ccc(C2CCN(C(=S)Nc3ccccc3C)C2)cc1 (configuration not stated)	103	101	-12	-20
O=C(N=Nc1c(O)[nH]c2ccccc12)c1cccc(Br)c1	103	102	2	-10

Next part (2 carried over from the part before).
SMILES	PV pol inh	PV pol inh intensity	Mtb MbtI inh	Mtb MenB inh
Cc1ccc(C2CCN(C(=S)Nc3ccccc3C)C2)cc1 (configuration not stated)	103	101	-12	-20
O=C(N=Nc1c(O)[nH]c2ccccc12)c1cccc(Br)c1	103	102	2	-10
Nc1cccc(-c2nc3ccccc3o2)c1	108	114	·	-18
CCN(CC)S(=O)(=O)c1ccc(-n2nnc(-c3ccc(C)cc3)n2)nc1	97	103	-4	-2
Cc1cccc(N2CC(C(=O)NC3CCCCCC3)CC2=O)c1C (configuration not stated)	107	100	4	-23
CNS(=O)(=O)c1ccc(C(=O)NCC(=O)O)cc1	103	111	4	-6
CCCCCS(=O)(=O)N1C(=O)CSC1=Nc1ccccc1	101	103	7	-11
O=C(NC(=O)N1CCCCC1)c1ccc(-c2csnn2)cc1	111	119	-1	-7
O=C(Cn1cncn1)N/N=C/c1ccccc1OC(F)F	104	108	2	-24
COc1ccccc1C1C(C#N)=C(N)Oc2c1c(=O)sc1ccccc21 (configuration not stated)	100	104	-2	-4
CC1CCN(C(c2ccc(F)cc2)c2sc3ncnn3c2O)CC1 (configuration not stated)	105	106	9	-21
COc1cc(-c2nnc(CN3C(=O)C4CC=CCC4C3=O)o2)cc(OC)c1OC (configuration not stated)	103	105	-8	2
O=c1oc2cc(O)ccc2c2c1CCCCC2	96	105	106	-13
O=C(c1ccco1)N1CCN(Cc2ccc3c(c2)OCO3)CC1	98	95	-1	-5
CC(=O)Nc1ccc(C(=O)N2CCOCC2)cc1	101	102	-4	-23
N#Cc1ccc(-c2c(-n3cccc3)oc(-c3cccs3)c2C#N)cc1	117	132	i	3
O=C(Cn1cc(SCc2ccccc2)c2ccccc21)N1CCCC1	104	99	7	-4
O=C(NCCO)C12CC3CC(CC(C3)C1)C2	101	105	-17	·
CC(C)CC(=O)Nc1ccc(Cl)cn1	100	101	-8	-1
COc1ccc(-c2cc(C)no2)cc1S(=O)(=O)N1CC(=O)Nc2ccccc21	100	104	-7	10
Cc1cccn2c(=O)nc(SCC(=O)Nc3ccccc3)nc12	104	106	5	-17
Cn1c2c(c(=O)n(C)c1=O)C(c1ccc(Cl)cc1Cl)C(C#N)=C(N)N2 (configuration not stated)	104	99	-3	-58
Cc1ccc(CCNC(=O)C2(NS(=O)(=O)c3cccc4cccnc34)CCCCC2)cc1	99	99	-1	-11
Fc1ccccc1NCc1nnc2n1CCCCC2	100	110	-4	-15
CCCCc1ccc(NC(=O)N=S2CCN(C(=O)c3ccc(Cl)cc3)CC2)cc1	106	109	-7	-9
COC(=O)c1ccccc1-c1ccc(/C=C(\C#N)C(=O)NCc2ccco2)o1	103	107	-7	-121
CC1=NN(c2ccccc2)C(=O)/C1=C/c1ccc(-c2ccccc2)o1	99	102	1	7
C=C(C)C1CCC(C)=C1CC/C(C)=N/NC(N)=O (configuration not stated)	100	103	-8	-16
c1ccc(-c2cnc(CSc3nnc(C4CC4)n3C3CC3)o2)cc1	104	109	-6	-24
CCCCN1C(=O)C2NN=C(C(=O)OC)C2C1=O (configuration not stated)	100	103	1	11
c1cncc(CNC2C3CC4CC(C3)CC2C4)c1 (configuration not stated)	103	103	-2	-38
Cc1ccc(O)c(C2=Nc3ccccc3N=C(C(F)(F)F)C2)c1	101	98	·	1
CCn1c(COC(=O)CCc2c(C)nc3ncnn3c2C)nc2cc(S(=O)(=O)N(C)C)ccc21	96	103	-6	3
CN1CCC(N(C)c2nc(-c3cccs3)nc3sc4c(c23)CCC4)CC1	99	98	17	-32
COc1ccc(N2C(=O)/C(=C\c3ccco3)N=C2SCC(=O)c2c(N)n(C)c(=O)n(C)c2=O)cc1Cl	103	107	-3	-37
O=C(O)/C=C\C(=O)Nc1nn[nH]n1	100	103	-17	-14
COc1ccc2c3c1O[C@H]1C[C@@H](O)C=C[C@@]31CCN(C)C2	100&105	103&98	-14&-6	-5&-6
Cc1ccc(C2=NNC3(S2)C(=O)Nc2ccccc23)cc1 (configuration not stated)	143	135	·	-62
O=S(=O)(Cc1cccc(C(F)(F)F)c1)Cc1cccc(C(F)(F)F)c1	105	110	-10	-4
O=C(c1cccs1)C(NS(=O)(=O)c1ccccc1)NS(=O)(=O)c1ccccc1	100	101	-7	-12
COc1ccccc1Oc1ccc2c(c1)C(=O)N(c1cccc(O)c1)C2=O	101	102	0	-6
CC1=C(C(=O)OC(C)C)C(c2ccccc2F)C(C#N)=C(N)O1 (configuration not stated)	102	106	20	-60
CCCC12CN3CC(CCC)(CN(C1)C3C(O)C(O)C(O)C(O)CO)C2=O (configuration not stated)	102	103	-1	14
COc1cc(/C=c2\sc3n(c2=NCCO)C(c2ccccc2)C(c2ccccc2)=NN=3)ccc1O (configuration not stated)	105	112	·	-7
CC(C)(C(=O)Nc1ccccc1)N(Cc1ccccc1)C(=O)c1ccccc1	100	102	-10	·
Cc1ccc2c(c1)c1c3n2CCN=C3CCC1	101	107	17	-100
NC(=O)c1ccc2nc(N)sc2c1	99	100	-25	-44
[O-]/[N+](=C\c1cccs1)c1ccc(Cl)cc1	102	103	10	-3
Oc1ccccc1/C=N/n1c2ccccc2c2ccccc21	103	102	-12	-4
CCNc1nc(OCC)nc(N2CCC(Cc3ccccc3)CC2)n1	103	105	3	-20
CC1=C(C(=O)OC(C)C)C(c2ccccc2)NC(=S)N1 (configuration not stated)	102	105	10	-36
CS(=O)(=O)NCCSCc1ccccc1	100	103	-3	-6
COc1ccc(CNC(=O)COC(=O)C2COc3ccccc3O2)cc1 (configuration not stated)	106	108	-9	-26
Cc1cccc(N(CC(=O)Nc2c(C)n(C)n(-c3ccccc3)c2=O)S(C)(=O)=O)c1	99	104	-14	0
O=C(Nc1ccccc1)Nc1ccc2ncccc2c1	101	104	-105	-12
O=C(NCCO)C(c1ccccc1)c1ccccc1	102	101	-3	-41
O=C(Cn1ncc(Cl)c(Cl)c1=O)NCCc1ccc(F)cc1	93	99	31	5
CCOC(=O)C1CCN(c2cc3c(cc2NC(=O)c2ccccc2)n(C)c(=O)n3C)CC1	102	102	1	-14
CSc1ccccc1NC(=O)c1cnn2c(C(F)(F)F)cc(-c3ccco3)nc12	99	101	3	-26
O=C(O)c1ccc(-c2ccc(CO)o2)cc1	102	99	135	-30
NC(Cc1ccc2nonc2c1)C(=O)O (configuration not stated)	104	99	3	-57
CCC1C/C(=C/c2ccco2)C(=O)/C(=C/c2ccco2)C1 (configuration not stated)	108	134	32	-101

Ordered by SMILES length (lowest first): some entries from above
SMILES	PV pol inh	PV pol inh intensity	Mtb MbtI inh	Mtb MenB inh
NC(=O)c1ccc2nc(N)sc2c1	99	100	-25	-44
CC(C)(C(=O)Nc1ccccc1)N(Cc1ccccc1)C(=O)c1ccccc1	100	102	-10	·
CCCC12CN3CC(CCC)(CN(C1)C3C(O)C(O)C(O)C(O)CO)C2=O (configuration not stated)	102	103	-1	14

3 entries picked at random from those above:
SMILES	PV pol inh	PV pol inh intensity	Mtb MbtI inh	Mtb MenB inh
COc1ccccc1Oc1ccc2c(c1)C(=O)N(c1cccc(O)c1)C2=O	101	102	0	-6
Cc1ccc(O)c(C2=Nc3ccccc3N=C(C(F)(F)F)C2)c1	101	98	·	1
CC(=O)Nc1ccc(C(=O)N2CCOCC2)cc1	101	102	-4	-23

Following part
SMILES	PV pol inh	PV pol inh intensity	Mtb MbtI inh	Mtb MenB inh
Cc1cc(C)c(NC(=O)COC(=O)c2nccnc2N)c(Cl)c1	118	140	99	3
CCc1ccc(N2C(=O)Nc3ccccc3S2(=O)=O)cc1	·	·	-13	-17
Nc1nnc(SCc2nnc(-c3cccs3)o2)s1	98	107	12	7
CN(C)S(=O)(=O)c1ccc(OCC(=O)O)cc1	102	102	-2	-15
Cc1ccnc(NC2CCCCC2)c1	104	107	i	·
CCn1c(SCC(=O)OCc2c(C(=O)OC)sc(N)c2C(=O)OC)nnc1-c1cccs1	105	100	14	9
CCCCc1cc2ccccc2c(OCCN(C)C)n1	101	97	-7	-2
Nc1cc(=O)[nH]c2n[nH]c(=S)n12	101	103	100*	33*
NC(=O)c1ccccc1OCc1ccc(F)cc1Cl	104	93	-7	-30
N#CC1=C(O)CCCn2c1nc1ccccc1c2=O	103	101	13	6
Cc1oc(C(O)C(O)C(O)CO)cc1C(=O)O (configuration not stated)	103	105	-15	-8
O=C(NCCC1=CCCCC1)c1ccc(Cn2c(=S)[nH]c3cc4c(cc3c2=O)OCO4)cc1	101	94	-8	-5
CC(C)(C)OC(=O)CSc1nc2ccccc2c(=O)[nH]1	93	87	39	17
O=C1CSC(=S)N1/N=C/c1cccnc1	100	104	6	-36
O=C(NCc1ccc(F)cc1)c1ccc(O)cc1	103	102	2	-19
C=CCNC(=O)Cn1c(=S)[nH]c2ncccc2c1=O	101	96	22	-21
O=C(O)c1c2c(nc3ccccc13)Cc1ccccc1-2	101	98	15	5
Cc1c(/C=C2/C(=O)Nc3ccc(Cl)cc32)cc(C#N)n1C	43	235	-7	-45
CC1(C)OC(C(=O)NC2CCCCC2)C(C(=O)NC2CCCCC2)O1 (configuration not stated)	103	107	-13	·
O=C(NCCCn1ccnc1)c1ccc(CN2CCc3ccccc3C2)cc1	102	104	-14	-35
NS(=O)(=O)c1ccc2c(c1)CCN2	103	98	4	-8
CCc1cc(=O)oc2c(C)c3c(cc12)CN(Cc1ccco1)CO3	102	104	-94	1
COCC(C)NCc1cc(F)ccc1F (configuration not stated)	103	102	-13	-13
CCc1cc2c(=O)n(Cc3ccco3)c(SCC(=O)Nc3ccc(F)cc3F)nc2s1	105	106	7	-22
COC(=O)c1c[nH]n2c(NC3CCCCC3)c(-c3cccc(Br)c3)nc12	101	108	1	-24
Cc1cn(CCC(=O)O)c(=O)[nH]c1=O	101	104	-13	-10
O=C(COC(=O)c1cc2ccccc2cc1O)NCc1ccccc1	105	102	-9	·
CCOC(=O)n1cc(C(=O)c2ccccc2O)cn1	104	102	-5	0
C=CCNC(=O)c1cc(=O)c2ccccc2o1	102	105	10	-19
Cc1cc(=O)[nH]c(S)c1C#N	105	108	6	-20
CCOC(=O)C1CCCN(C(=O)CSc2ccc(Cl)cc2)C1 (configuration not stated)	103	108	0	·
CCOC(CCn1c(SCc2cccc(F)c2)nc2ccccc2c1=O)OCC	104	104	-1	-2
C=CCc1c(C)c2ccc(OC(C)=O)cc2oc1=O	103	101	116	12
N#CCn1cc(/C=C2\C(=O)NC(=O)N(c3cccc(F)c3)C2=O)c2ccccc21	101	96	74*	-24
CCc1ccc(NC(=O)c2cnn3c(C(F)F)cc(C)nc23)cc1	104	100	-4	-45
CCN1C(=O)NC(c2ccccc2)C1=O (configuration not stated)	100	100	-12	-1
CCOc1ccc(OCC)c(S(=O)(=O)n2cnc3cc(C)c(C)cc32)c1	100	101	-17	-20
CC(Sc1ncc(S(=O)(=O)c2ccccc2)c(N)n1)C(=O)Nc1ccccc1 (configuration not stated)	103	102	-9	-3
COc1ccccc1CNCCc1ccccc1	101	101	-13	-11
N#Cc1c(F)cccc1N1CCN(c2ccc(O)cc2)CC1	101	104	59	-42
Oc1cccc(C=Nc2ccc(OC(F)(F)F)cc2)c1O	96	93	25	-40

High-throughput results from PubChem BioAssay.
